# Compound activity: PubChem, several laboratories
# RN4220 kill: S. aureus RN4220 growth inhibition. actives 0.33% (n = 330,000). OD600, 16 h. inhibition, % (test concentration not listed). AID 1259311;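 active = z-score of -3 or lower and OD600 up to 0.18 on both plates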;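 also: plate controls were untreated cells for no effect and reference antibiotic for full effect; stock transfer was 100 nL into about 80 µL; one replicate is shown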
# Sa ugtP lethal: kills S. aureus RN4220 lacking UgtP. growth inhibition, % (test concentration not listed). S. aureus RN4220 ugtP deletion, OD600 growth, 16 h; some inactives read as strong as hits. actives 0.54% (n = 330,000);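 active = z-score under -3 and OD600 up to 0.15 on both plates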;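 also: plate controls were untreated wells for no effect and antibiotic for full effect; wells of about 80 µL received 100 nL stock; the first replicate is given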
# PrP UTR inh: inhibition of PrP 5' UTR reporter expression. cell-based PrP 5' UTR mRNA reporter, plate reader. inhibition, % (concentration not given with the values). actives 0.35% (n = 340,000);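 active = every replicate at 50% or more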;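 also: 0 = median of the neutral control wells; tested in H4 reporter cells; numbers are from one replicate; inactives centre near -14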
# Autofluor counter: counter-screen for toxin protease inhibitors: compound fluorescence; compound autofluorescence counterscreen, microsphere flow cytometry; active compounds read high; fluorescence intensity (no concentration beside the values); actives 3.1% (n = 360,000); AID 624483;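 active = at least 3 SD above the mean of all compounds, about 16000 in these data; inconclusive = too few beads counted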;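 also: 100 nL of 1 mM stock went into each well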
# Mtb hypoxia rep: reduces hypoxia-regulated biosensor signal in M. tuberculosis; M. tuberculosis hypoxia-regulated fluorescent reporter, fluorescence; fluorescence inhibition, % (concentration not given with the values); actives 0.1% (n = 300,000); AID 1159583;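 active = 35 to 45% if threefold the growth effect, above 45% if 1.5-fold the growth effect; inactive = the rest, general growth blockers included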;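 also: wells of about 50 µL received 100 nL stock; 0% = vehicle wells and 100% = reference inhibitor wells; whole bacteria with a GFP reporter of the hypoxia response; strong numbers were not always called active; many hits fall short of the cut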
# BJeLR lethal: kills HRASV12-expressing BJeLR cells; actives 0.17% (n = 300,000); BJeLR (HRASV12) viability, CellTiter-Glo ATP luminescence, 48 h; reference of the scale not given here; inhibition, % (no concentration beside the values);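 active = replicate mean above 50%; inconclusive = above 50% but judged a plate artefact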;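 also: 50 nL library stock added to about 25 µL; numbers are from one replicate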
# Mtb hypoxia rep growth: also measured in Mtb hypoxia rep; calls as there; growth inhibition, %; measured here: M. tuberculosis growth (absorbance);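 0% = vehicle and 100% = reference antibiotic; read after six days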
# Active calls of the source: *; u = inconclusive; x = no result given. This is a random part of the collection; any-hit rate near 4%.
# Results follow in this order: RN4220 kill, Sa ugtP lethal, PrP UTR inh, Autofluor counter, Mtb hypoxia rep, Mtb hypoxia rep growth, BJeLR lethal
- CCN(c1ccccc1)S(=O)(=O)c1cccc(C(=O)Nc2ccc(C)cn2)c1
→ 5.6, -4, -16, 5477, 3, 11, 1
- Cn1c2c(c(=O)n(C)c1=O)CN(CC1CCCO1)CN2 (centres undefined)
→ 4.9, -7, -19, 9606, 6, 5, 6
- O=C1N/C(=C/c2ccc(N3CCOCC3)cc2)C(=O)N1Cc1ccc(F)cc1
→ 5.2, -3, -5, 18011*, -7, -4, 4
- Cc1ccc(Sc2ncccc2[N+](=O)[O-])cc1
→ -2.0, 12, -36, 4399, 9, -4, 9
- COCCNC(=O)CN(c1cc(C(F)(F)F)ccc1Cl)S(C)(=O)=O
→ 3.6, -2, -3, 12483, -4, 0, 14
- Cc1ccc(C(CC(=O)N2CCNCC2)c2ccccc2)c(O)c1C (centres undefined)
→ 0.5, -6, -9, 2861, 9, 1, 5
- COc1ccccc1C(=O)COC(=O)C1CCN(S(=O)(=O)c2ccc(C)c(C)c2)CC1
→ -7.4, -6, 3, u, -1, -1, 0
- [O-]C1=N/[N+](=C/c2ccc(Cl)c(Cl)c2)CC1
→ 17, 2, -11, 3134, -2, 11, 8
- COc1cc(NC(=O)c2ccc([N+](=O)[O-])cc2)ccc1NC(=O)C(C)C
→ 3.9, 3, -19, 4614, 5, 1, -2
- CN(C(=O)CSc1nc2cc(Cl)ccc2c(=O)n1Cc1ccco1)C1CCS(=O)(=O)C1 (centres undefined)
→ 2.1, -16, -7, 4297, 14, 3, -4
- COC(=O)CCN1CCC(c2cc(-c3cccc(C(F)(F)F)c3)n[nH]2)CC1
→ 2.8, 14, -16, 3121, 5, -7, 3
- COc1cccc(NC(=O)CC(C)=O)c1
→ 3.6, 3, -13, 7748, 3, -1, -7
- Cc1cc(C)cc(N(CC(=O)N2CCn3c2nc2ccccc23)S(=O)(=O)c2c(C)noc2C)c1
→ 0.1, 9, 67*, 4064, x, x, -2
- COc1ccc(NC(=O)CN(C)CC(=O)Nc2cccc3ccccc23)c(OC)c1
→ 5.5, 6, -14, u, 3, -2, x
- CCCNC(=O)COC(=O)c1cc(-c2ccc(OC)cc2)nc2ccccc12
→ 6.3, -1, -18, 4262, 7, 1, 9
- CC1CCN(C(=O)c2cc(Cl)ccc2NC(=O)c2ccco2)CC1
→ 1.1, -1, -31, 3809, 8, 2, -11
- CC(C)n1c(=S)[nH]c2c1c(=O)[nH]c(=O)n2C
→ -0.6, 7, -7, 2660, x, x, 8
- CSc1ccc(Cl)c(C(=O)OCC(=O)N2CCN(c3ccccc3)CC2)c1
→ 2.3, 4, -6, x, 3, 0, x
- Cc1ccn2c(NC(=O)c3ccco3)c(-c3ccccc3)nc2c1
→ 3.9, 9, -30, 11291, 7, 6, 7
- Cc1ccc(-n2nc3c(c2NC(=O)CCC2CCCCC2)CS(=O)C3)cc1 (centres undefined)
→ 4.5, 9, -32, 5078, 3, 1, -7

# Overlap with the part before: 3 entries, then new ones.
# Results follow in this order: RN4220 kill, Sa ugtP lethal, PrP UTR inh, Autofluor counter, Mtb hypoxia rep, Mtb hypoxia rep growth, BJeLR lethal
- CSc1ccc(Cl)c(C(=O)OCC(=O)N2CCN(c3ccccc3)CC2)c1
→ 2.3, 4, -6, x, 3, 0, x
- Cc1ccn2c(NC(=O)c3ccco3)c(-c3ccccc3)nc2c1
→ 3.9, 9, -30, 11291, 7, 6, 7
- Cc1ccc(-n2nc3c(c2NC(=O)CCC2CCCCC2)CS(=O)C3)cc1 (centres undefined)
→ 4.5, 9, -32, 5078, 3, 1, -7
- Fc1ccccc1Nc1n[nH]c(=S)s1
→ 2.3, -5, -16, 3753, 1, 1, 4
- CCc1cc2c(SCC#N)ncnc2s1
→ x, x, -38, 3976, x, x, 9
- CCc1ccc(S(=O)(=O)NCc2csc(C)n2)cc1
→ 3.8, 12, -21, 3967, -7, 12, -6
- CN(C)c1nnnn1-c1cccc(Oc2ncc(C(F)(F)F)cc2Cl)c1
→ -1.5, 9, -30, 4447, 8, 6, 0
- CCc1nnc(NC(=O)Cn2nc(-c3ccc(OC)c(OC)c3)ccc2=O)s1
→ 5.6, 8, -2, 8710, 3, -5, -5
- CC(=O)COC(=O)c1cc(-c2ccc(C)cc2)nc2ccccc12
→ 6.1, 3, 1, 1987, 0, 6, 5
- Cc1cc(NC(=S)Nc2ccc(C)c(Cl)c2)n[nH]1
→ 4.2, 0, -69, 4058, 13, 12, 9
- COc1ccc(OC)c(NC(=O)C2CCC(CNc3c(N4CCC(C)CC4)c(=O)c3=O)CC2)c1 (centres undefined)
→ -3.7, -13, -8, 3900, -5, 3, -7
- Cc1cccnc1NC(=O)CNC(=O)C12CC3CC(CC(Cl)(C3)C1)C2
→ 3.1, 3, -8, u, -13, -1, -11
- COCCn1nnnc1C(c1ccc(OC)cc1OC)N1CCN(c2ccccc2F)CC1 (centres undefined)
→ 2.1, -5, -20, 5469, x, x, -9
- Cn1c(=O)c2c(nc(SC3C(=O)CC(C)(C)CC3=O)n2C)n(C)c1=O
→ 6.5, 2, -15, 4286, 7, 4, 5
- CCCCOCCCNC(=O)N[C@H](C(=O)OC)C(C)C
→ x, x, 17, 3330, x, x, 2
- Cc1cc(C)c(C(=O)COC(=O)CCn2c(C)csc2=O)cc1C
→ 7.6, 16, -52, 5381, 16, -2, -2
- COc1ccc(-c2nnc(SCC(=O)c3[nH]c(C)c(C(C)=O)c3C)o2)cc1
→ 32, 0, -22, 2796, 4, 9, x
- CC(c1ccccc1)C1CC(=O)N(C2CCCCC2)C1=O (centres undefined)
→ 9.7, 10, -16, 10171, 12, 14, 7
- CCOc1ccc2[nH]c(C)cc(=O)c2c1
→ 4.2, 4, 1, 5634, x, x, -10
- C=CCOc1ccc(-c2nc3c(c(=O)[nH]c(=O)n3Cc3ccccc3)n2CCCOC)cc1
→ x, x, -43, 5842, x, x, -4
- Cc1cc(=O)oc2cc(OCC(=O)Nc3nnc(C(C)C)s3)ccc12
→ -1.0, -2, -17, 4895, x, x, 8
- CC(=O)c1ccc(S(=O)(=O)NC2CC(=O)N(c3ccc(C)c(C)c3)C2)cc1 (centres undefined)
→ 1.2, -1, -27, 5772, -10, 10, -5
- C=C1CCN(C(CC(C)C)C(=O)O)S(=O)(=O)c2ccccc21 (centres undefined)
→ 5.9, 4, x, x, 6, -1, x
- CCOC(=O)c1[nH]c2cc(OC)c(OC)cc2c1NC(=O)c1nonc1C
→ 3.6, -1, -26, 5835, 9, 7, 7
- C=CCN1C2=NCCCN2c2ccccc21
→ 8.8, 4, -9, 4999, 0, -4, -1
- COc1ccc(-c2cn(Cc3ccc([N+](=O)[O-])cc3)nn2)cc1
→ 8.1, 6, -9, 4223, 1, 14, 2
- CCOC(=O)/C(=C\c1cn(C)c2ccccc12)[N+](=O)[O-]
→ 4.3, 2, -15, 2544, 4, -4, -9
- O=C(COC(=O)c1ccc(Br)o1)NCc1ccccc1Cl
→ 3.5, 5, 11, 6610, 1, 5, x
- Cc1ccccc1S(=O)(=O)Nc1nc2ccccc2nc1Cl
→ 13, -12, -8, 2474, 7, 6, 4
- NS(=O)(=O)c1cccc(NC(=O)COC(=O)CSCc2ccccc2)c1
→ 1.0, -4, -24, 4012, -8, 3, x
- CCOc1cc(NC(=O)C2CC2)c(OCC)cc1NC(=O)c1ccccn1
→ 5.8, -12, -13, 4801, x, x, -3
- O=C(CN(Cc1cccs1)C(=O)CNS(=O)(=O)c1ccc(F)cc1)NCC1CCCO1 (centres undefined)
→ 2.7, 7, -8, 4980, -2, 8, 3
- O=S(=O)(Nc1cc(Cl)ccc1-n1cncn1)c1cc(Br)ccc1Br
→ 36, 43, -6, 3459, 5, 7, x
- COc1ccc(NC(=O)C(Sc2nnc3ccccn23)c2ccccc2)cc1Cl (centres undefined)
→ 2.6, 8, -2, 1897, 7, 0, -8
- Cc1c(C(=O)NC(C)CN2CCCCC2)oc2ccccc12 (centres undefined)
→ 3.9, 7, 1, 17372*, 10, 6, -3
- O=C(c1ccc(OC2CCN(CCc3ccccc3)CC2)cc1)N1CCC[C@H]1CO
→ 1.1, 1, -6, 6338, 4, 2, 8
- S=C(NCc1cccs1)Nc1cc(Cl)cc(Cl)c1
→ 61, 61, -16, 6322, 8, 4, -8
- COC(=O)c1c(C)[nH]c(C)c1-c1ccccc1
→ -16, -4, -12, 3372, 2, 14, 1
- C[C@H](NC(=O)[C@H]1N2C(=O)c3ccccc3C2SC1(C)C)C(=O)NCC1CCCO1 (some centres undefined)
→ 3.6, 3, 1, 5104, 9, 7, -1
- CN(CCN(C)C(C)(C)C)C(=O)C(c1ccccc1)c1ccccc1
→ -1.0, 2, -8, 2938, -11, 5, -1
- Cc1[nH]nc2c1C(Cc1ccccc1)C(C#N)=C(N)O2 (centres undefined)
→ -5.5, 11, -11, 4821, x, x, 0
- CCOc1ccc(CN2CCC(=O)NC2=O)cc1
→ 2.3, -2, -18, 17829*, 3, 9, -8
- CN(C)CCCNCC(=O)Nc1ccccc1N1CCOCC1
→ 5.3, 8, -19, 10168, 3, 8, -4
- Cc1cccc(NN=C(C#N)S(=O)(=O)C(C)(C)C)c1
→ 7.5, 9, x, x, 13, -1, x
- CCCCN(CC)S(=O)(=O)c1ccc(C(=O)Nc2nnc(-c3ccccc3Cl)o2)cc1
→ 100*, 100*, -5, 5088, -3, 7, 1
- CC[C@@H]1C=C(C(=O)O)[C@H](c2ccc(F)cc2)N1S(=O)(=O)c1ccc(C)cc1
→ 10, 11, -17, 2940, -1, 1, x
- c1coc(Cn2nnnc2CN2CCN(C3CCCCC3)CC2)c1
→ -3.1, -1, 5, x, x, x, 1
- O=C(NCc1ccccn1)Nc1ccccc1F
→ 4.5, 5, -29, 5494, 10, 3, 9
- O=C(NCCN1C(=O)S/C(=C\c2ccc(F)cc2)C1=O)c1cccc(S(=O)(=O)N2CCOCC2)c1
→ 7.2, 2, -37, 3019, 10, 9, -1
- CCc1nnc(SCC(=O)N2CCCc3ccccc32)nc1CC
→ 0.4, -1, 4, 3356, -3, -8, -11
- FC(F)(F)c1nc(-c2cccnc2)ncc1-c1nnnn1-c1ccccc1
→ 6.7, 9, 5, 6969, -2, -1, -16
- O=C(c1ccc([N+](=O)[O-])cc1)N1CCc2ccccc21
→ 0.7, -2, -34, 5950, -13, 5, 2

# Molecules listed so far that have fluorine, in the order listed:
# Results follow in this order: RN4220 kill, Sa ugtP lethal, PrP UTR inh, Autofluor counter, Mtb hypoxia rep, Mtb hypoxia rep growth, BJeLR lethal
- O=C1N/C(=C/c2ccc(N3CCOCC3)cc2)C(=O)N1Cc1ccc(F)cc1
→ 5.2, -3, -5, 18011*, -7, -4, 4
- COCCNC(=O)CN(c1cc(C(F)(F)F)ccc1Cl)S(C)(=O)=O
→ 3.6, -2, -3, 12483, -4, 0, 14
- COC(=O)CCN1CCC(c2cc(-c3cccc(C(F)(F)F)c3)n[nH]2)CC1
→ 2.8, 14, -16, 3121, 5, -7, 3
- Fc1ccccc1Nc1n[nH]c(=S)s1
→ 2.3, -5, -16, 3753, 1, 1, 4
- CN(C)c1nnnn1-c1cccc(Oc2ncc(C(F)(F)F)cc2Cl)c1
→ -1.5, 9, -30, 4447, 8, 6, 0
- COCCn1nnnc1C(c1ccc(OC)cc1OC)N1CCN(c2ccccc2F)CC1 (centres undefined)
→ 2.1, -5, -20, 5469, x, x, -9
- O=C(CN(Cc1cccs1)C(=O)CNS(=O)(=O)c1ccc(F)cc1)NCC1CCCO1 (centres undefined)
→ 2.7, 7, -8, 4980, -2, 8, 3
- CC[C@@H]1C=C(C(=O)O)[C@H](c2ccc(F)cc2)N1S(=O)(=O)c1ccc(C)cc1
→ 10, 11, -17, 2940, -1, 1, x
- O=C(NCc1ccccn1)Nc1ccccc1F
→ 4.5, 5, -29, 5494, 10, 3, 9
- O=C(NCCN1C(=O)S/C(=C\c2ccc(F)cc2)C1=O)c1cccc(S(=O)(=O)N2CCOCC2)c1
→ 7.2, 2, -37, 3019, 10, 9, -1
- FC(F)(F)c1nc(-c2cccnc2)ncc1-c1nnnn1-c1ccccc1
→ 6.7, 9, 5, 6969, -2, -1, -16
